Sa helicase inh = S. aureus DNA helicase inhibition; purified S. aureus helicase, fluorescence unwinding assay; about half of the hits fall short of the stated cut; inhibition, %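 (tested at about 80 µM)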; 120,000 tested, 0.05% active; AID 485395;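 active = both duplicates at 50% or more, or one of them with a favoured structure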;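 note: 0% = mean of negative control wells and 100% = mean of positive control wells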
MgrA-DNA mod = alters Staphylococcus aureus MgrA binding to DNA; inhibition, %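 (about 10 µg/mL by stock and volumes)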; 84,000 tested, 0.13% active; fluorescence polarization;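 active = above 50% in either of two replicates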;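 note: 0% = protein plus DNA without compound and 100% = DNA alone without protein; higher means less MgrA bound to DNA so lower polarization; one replicate is shown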
The depositor's hits bear a star; x = no result given; & = joins results of further samples. An excerpt; the hit share may differ from the screen's.

cpd | Sa helicase inh | MgrA-DNA mod | Structure
1 | -1 | -3.2 | O=S(=O)(Cc1ccccc1)N1CCN(CCO)CC1
2 | 8 | x | O=C(COc1ccc(C2=NN(C(=O)c3cccs3)C(c3ccco3)C2)cc1)N1CCCCC1 (stereo not given)
3 | x | -1.1 | CN(C)/C=C1\C(=O)c2ccccc2N(C)S1(=O)=O
4 | -1 | x | Cc1noc(C)c1CON=c1c(C)nc2ccccc2nc1C
5 | -14 | x | O=C(/C=N/O)Nc1ccc2c(c1)OCO2
6 | 13 | x | CC(C)(C)OC(=O)N1CCNC(=O)C1
7 | 8 | -0.4 | COc1nnc(-c2ccc(C)c(S(=O)(=O)N(C)C)c2)c2ccccc12
8 | -17 | x | O=C(CN1CCCCCC1)Nc1ccc2c(c1)OC(F)(F)O2
9 | -6 | x | COc1ccc(N2CCN(C(C)C(N)=O)CC2)cc1 (stereo not given)
10 | 8 | x | CCCCCSc1ncnc2nc[nH]c12

Next compounds follow.
cpd | Sa helicase inh | MgrA-DNA mod | Structure
11 | x | 1.2 | O=C(CC1OC(=O)c2ccccc21)c1ccc(Cl)cc1 (stereo not given)
12 | 10 | 9.2 | O=C(CSc1nc2sc3c(c2c(=O)n1Cc1ccco1)CCC3)Nc1nccs1
13 | 7 | -0.2 | CC(C)n1cnc2cc(NCc3ccccc3O)ccc21
14 | x | 0.8 | N#CCS(=O)(=O)c1ccccn1
15 | x | 1.0 | COc1ccccc1C(=O)OCC(=O)c1ccc(Cl)cc1
16 | -31 | x | O=C1NC(=O)/C(=C\c2cccc(C(F)(F)F)c2)S1
17 | x | 0.9 | Cc1ccc(NC(=O)c2ccc3c(c2)CCO3)cc1
18 | -3 | x | CC(=O)Nc1cc2ccccc2cc1NC(C)=O
19 | x | -0.5 | Cn1nc(-c2ccc(Cl)cc2)cc1NC(=O)CC(C)(C)CC(=O)O
20 | -13 | x | O=C(NCC(=O)N1CCCc2ccccc21)C1CCCCC1

Carrying on.
cpd | Sa helicase inh | MgrA-DNA mod | Structure
21 | -20 | x | Cc1onc(-c2ccccc2Cl)c1C(=O)ONC1=NCCCC1
22 | -21 | x | COc1ccc(-c2nn3c(Cc4ccc(Cl)cc4)nnc3s2)cc1OC
23 | 10 | x | CC(C)c1ccc(NC(=O)Cn2c(-n3ncc(N4CCOCC4)c(Cl)c3=O)nc3ccccc32)cc1
24 | x | 0.3 | Cc1c(C#N)c(Sc2ccccc2NC(=O)c2ccco2)nc2ccccc12
25 | 12 | 2.0 | CCC(C)Oc1c(Cl)cc(C#N)cc1OC (stereo not given)
26 | -8 | x | CC(C(=O)O)N1C(=O)CSC1=O (stereo not given)
27 | x | -3.0 | CC(=O)Nc1cc2cc(NC(=O)c3c(F)cccc3F)ccc2oc1=O
28 | x | -1.8 | O=C(Nc1nnc(C2CC2)s1)C1CC1
29 | 1 | x | COc1ccc(OC)c(S(=O)(=O)N2CC(C)N(S(=O)(=O)c3cc(OC)ccc3OC)CC2C)c1 (stereo not given)
30 | 23 | x | N#Cc1nc(-c2ccccc2F)oc1NCCCN1CCOCC1

Next records:
cpd | Sa helicase inh | MgrA-DNA mod | Structure
31 | 12 | x | COc1cc(C(=O)N2CCc3ccccc3C2)cc(NC(=O)c2ccco2)c1OC
32 | -11 | 2.0 | COc1ccc2nc3oc(C(=O)N4CCN(c5cccc(C(F)(F)F)c5)CC4)cc3cc2c1
33 | 4 | 0.4 | C=CCNc1nc(NCCN2CCOCC2)nc(OC)n1
34 | 12 | x | CC1CCN(C(=O)COc2ncnc3ccccc23)CC1
35 | -18 | 4.5 | CCO/C=C1\C(=O)N(c2ccccc2)C(=O)c2ccccc21
36 | 6 | -3.0 | CSc1nnc(-c2nnc(SC)n2-c2ccccc2)n1-c1ccccc1
37 | 11 | 1.2 | Cc1ccc(C)c(S(=O)(=O)NCCCn2ccnc2)c1
38 | x | 3.0 | NCCCCN=C(N)N
39 | x | -0.9 | O=C(Nc1cccc(-n2cccc2)c1)c1cccc2c1OCCCO2
40 | -36 | x | CCc1ccc2c(C)nc(NC3=NC(C)(C)C=C(C)N3)nc2c1

(more compounds)
cpd | Sa helicase inh | MgrA-DNA mod | Structure
41 | 17 | x | COc1ccc(-c2cc3nc(Cc4ccccc4)cc(=O)n3[nH]2)cc1
42 | -12 | x | CC(C)(CC(=O)O)CC(=O)N1CCN(c2nc(-c3ccccc3)ns2)CC1
43 | 12 | -2.0 | COc1cc(SC)ccc1C(=O)NCc1ccccc1
44 | x | 13 | Nc1ccc2nonc2c1N
45 | -7 | x | CN1/C(=C\C=N\NC(=O)c2cccnc2)C(C)(C)c2ccccc21
46 | 4 | 0.5 | O=C(NC1CC1)c1ccc(/C=C2/Oc3ccccc3N(Cc3ccccc3F)C2=O)cc1
47 | -22 | x | CC(C)C(=O)Nc1sc2c(c1C#N)CCC2
48 | 11 | 2.1 | Cn1c(=NC(=O)CCOc2ccccc2)sc2cc(Br)ccc21
49 | x | -1.9 | Fc1ccc(Nc2nnc(-c3ccccc3Cl)s2)cc1
50 | -97 | 3.0 | C=CCNc1nc2c(C)cccn2c(=O)c1/C=C1\SC(=S)NC1=O

Carrying on.
cpd | Sa helicase inh | MgrA-DNA mod | Structure
51 | -23 | x | COc1ccc(-n2cc(C(=O)NCCc3c[nH]c4ccccc34)nn2)cc1
52 | 10 | x | O=C(Nc1cccc(OC(=O)N2CCOCC2)c1)N1CCCCC1
53 | -12 | x | C=CCNC(=S)N/N=C1\CC2CC=CC12 (stereo not given)
54 | -19 | x | CS(=O)(=O)c1ccc2c(c1)sc1nc(-c3ccccc3Cl)cn12
55 | x | -0.9 | CSC(=NC#N)/N=c1/nc(SC)n(C)n1C
56 | x | 0.8 | FC(F)(F)c1ccc(-c2nnc(-c3ccc4nccnc4c3)o2)cc1
57 | -19 | x | CC(C)NS(=O)(=O)c1ccc(NC(=O)c2ccccn2)cc1
58 | x | 2.0 | CCCCSc1nnc2c(n1)OC(/C=C/c1ccc([N+](=O)[O-])o1)Nc1ccccc1-2 (stereo not given)
59 | 12 | x | O=C(Cc1coc(-c2ccc(F)cc2)n1)N1CCOCC1
60 | 8 | -2.2 | CCOc1ccccc1C(=O)N=C1NC(=O)CS1

Next part:
cpd | Sa helicase inh | MgrA-DNA mod | Structure
61 | 6 | 0.0 | CC1(C(=O)Nc2cccc(Br)c2)CC(=O)N=C2C=CC=CN21 (stereo not given)
62 | 22 | x | O=C(CC12CC3CC(CC(C3)C1)C2)NCC(=O)Nc1cccnc1
63 | 17 | x | CCN(CC)C(=O)CSc1nc(O)cc(=O)n1-c1ccc(OC)cc1
64 | -8 | x | O=C(COC(=O)C1CCCCN1S(=O)(=O)c1ccccc1)Nc1ccccc1C(=O)NC1CC1 (stereo not given)
65 | 5 | x | COC(=O)c1cc(-c2ccc(Cl)cc2)n[nH]1
66 | -10 | x | CC(C)(C)c1csc(NC(=O)C2=COCCO2)n1
67 | x | -2.0 | CC(C)(C)n1ncc(C#N)c1N
68 | 4 | x | CCC(CO)n1c(SCn2nnc3ccccc3c2=O)nc2cc(OC)c(OC)cc2c1=O (stereo not given)
69 | -14 | -0.3 | O=C(CSc1ncccn1)c1ccc(C2CCCCC2)cc1
70 | -19 | x | CCOc1ccccc1NC(=O)CCCN1C(=O)/C(=C\c2ccco2)SC1=S

Remaining list, next part
cpd | Sa helicase inh | MgrA-DNA mod | Structure
71 | 2 | x | CCOC(=O)Cn1c(=O)oc2cc(S(=O)(=O)NCc3ccccc3)ccc21
72 | 5 | x | CN(CC(=O)Nc1cccc2ccccc12)C(=O)C1=COCCO1
73 | x | -0.2 | COc1ccc(C2CC(C(F)(F)F)n3nc(C(=O)Nc4ccc5c(c4)OCO5)c(Cl)c3N2)cc1OC (stereo not given)
74 | 4 | x | CCCCSC1=NC(C)(C)Nc2ccccc21
75 | 6 | x | CC(=O)Nc1ccc(C(=O)Nc2ccc(S(C)(=O)=O)cc2)cc1
76 | -4 | 0.0 | CCC(Cc1ccccc1)NC(=O)c1c[nH]c2ccc(S(=O)(=O)N3CCC(C)CC3)cc2c1=O (stereo not given)
77 | 13 | x | COc1ccc(C2CCCCCN2C(=O)Cc2noc3ccccc23)cc1 (stereo not given)
78 | -3 | x | Nn1c(SCCOc2ccccc2)nnc1-c1ccccc1
79 | x | -1.1 | O=C(CN1C(=O)C2(OCCO2)c2ccccc21)c1ccc(Cl)cc1
80 | 3 | 2.5 | CCc1cc(=O)oc2c(C)c3c(cc12)CN(Cc1ccccc1)CO3

Further records:
cpd | Sa helicase inh | MgrA-DNA mod | Structure
81 | 22 | x | O=S(=O)(c1ccc(-c2ccno2)s1)N1CCCC1
82 | -16 | 4.6 | CCn1c(-c2nc3ccccc3n2CC)nc2ccccc21
83 | -16 | 1.3 | Cc1ccc(-c2cc(C(F)(F)F)n3nc(C(=O)N4CCN(c5ccccc5)CC4)cc3n2)cc1
84 | 11 | -0.9 | CC1=NN(C(=O)C(C)C)C(O)(C(F)(F)F)C1 (stereo not given)
85 | 1 | 0.7 | Cc1ccc(C)c(N=Cc2ccc(C#N)cc2)c1
86 | 6 | x | COCCN1CN(S(=O)(=O)c2ccccc2)c2nc3ccccc3nc21
87 | 2 | x | COCCn1c(C)cc(O)c(C(c2ccncc2)N2CCCCC2)c1=O (stereo not given)
88 | 12 | 3.5 | Cc1cccc(N(C)S(=O)(=O)c2cccc3nsnc23)c1
89 | x | -2.3 | CC(=O)Nc1nccc(-c2cc(-c3cccc(C(F)(F)F)c3)no2)n1
90 | 26 | x | COc1ccc(CC(C(=O)Nc2ccccc2)C(C)C(=O)O)cc1 (stereo not given)

Next part.
cpd | Sa helicase inh | MgrA-DNA mod | Structure
91 | -4 | -2.9 | CCOC(=O)c1[nH]cnc1C(=O)N1CCOCC1
92 | x | -3.5 | Cc1cc(=O)n2[nH]c(-c3sc4ccc(Cl)cc4c3C)cc2n1
93 | 20 | x | CC1(C)CC(=O)C2=C(C1)NC(=S)NC2C1CCCCC1 (stereo not given)
94 | 14 | x | COC(=O)c1cc(S(=O)(=O)NCC2CCN(CCc3cccs3)CC2)cn1C
95 | 5 | x | Cc1c(C(=O)N2CCN(Cc3nc4ccccc4s3)CC2)oc2ccccc12
96 | 4 | 0.2 | CC(C)C(NS(=O)(=O)c1ccccc1)C(C)C
97 | 5 | x | CCN1CCCC1CNC(=O)Nc1ccc2c(c1)N(C)C(=O)c1ccccc1S2 (stereo not given)
98 | 11 | -1.8 | O=C(N(Cc1ccccc1)c1ccccn1)C12CC3CC(CC(C3)C1)C2
99 | 1 | 15 | c1ccc(CCCNc2ncccn2)cc1
100 | 9 | x | Cc1cnc(C(=O)OCC(=O)NCC2CCCCC2)cn1

More records follow.
cpd | Sa helicase inh | MgrA-DNA mod | Structure
101 | -13 | 2.0 | CCOC(=O)C1=C(C)NC(C(=O)NCCCN2CC(C)CC(C)C2)CS1 (stereo not given)
102 | x | 1.1 | O=C1CS(=O)(=O)CN1c1ccc(C(F)(F)F)cc1
103 | x | -0.3 | O=C(NCCCN1CCOCC1)c1nn2c(C(F)(F)F)cc(-c3ccccc3)nc2c1Br
104 | -8 | x | C=CCN(S(=O)(=O)c1ccc(Cl)cc1)S(=O)(=O)c1ccccc1OC
105 | 14 | x | O=S(=O)(c1ccc(I)cc1)N1CCCCCC1
106 | 11 | -0.1 | C=CCn1c(COc2ccccc2OC)nc2ccccc21
107 | -21 | x | CC1CCN(c2ccc(C(F)(F)F)cn2)CC1
108 | x | -2.8 | Oc1ccccc1C=Nc1cc(C(F)(F)F)cc(C(F)(F)F)c1
109 | x | 2.8 | O=C1CCC(=O)N1c1ccc(-c2nc3sc4c(c3c(=O)o2)CCC4)cc1
110 | 8 | 0.9 | COc1ccc(-n2cnc3nc(C)c(C(=O)/C=C/N(C)C)c(-c4ccccc4)c32)cc1

(next part)
cpd | Sa helicase inh | MgrA-DNA mod | Structure
111 | -14 | 1.1 | Cc1c(Cc2ccccc2)c(=O)oc2cc3oc4c(c3cc12)CCCC4
112 | -9 | x | COc1ccc(-c2nnc(SCC(=O)N(C)C)n2C2CCCCC2C)cc1 (stereo not given)
113 | x | -3.0 | COc1cc2ncnc(NC(C)C)c2cc1OC
114 | -2 | -1.6 | c1ccc2oc(CCc3nc4ccccc4o3)nc2c1
115 | x | -1.9&-2.5 | Cc1c(OCC(F)(F)F)ccnc1CS(=O)c1nc2ccccc2[nH]1 (stereo not given)
116 | -12 | x | Cc1ccc(NC(=O)C(CC(C)C)NC(N)=O)cc1Cl (stereo not given)
117 | -5 | x | NC(=O)CSCc1cc(Cl)c2c(c1)OCCCO2
118 | x | 0.8 | COc1ccc(/C=C2\SC(=S)NC2=O)cc1Br
119 | -20 | x | COC(=O)c1sc(-c2ccccc2)cc1NC(=O)C1CCCCC1
120 | -1 | x | CN(C)/C=C(\Sc1ncccn1)C(=O)c1ccc(Cl)cc1

Further entries:
cpd | Sa helicase inh | MgrA-DNA mod | Structure
121 | 5 | 0.2 | Cc1cccc(N2CCCC2=Nc2ccc(Br)cc2C#N)c1
122 | 10 | 4.6 | FC(F)Sc1nnc(-c2ccccc2)n1-c1ccccc1
123 | -21 | x | O=C(COC(=O)c1ccc(O)cc1O)c1ccccc1
124 | x | 3.9 | CC(C)(C)c1ccc(-c2noc(CSc3ccccn3)n2)cc1
125 | x | 11 | NC(CC(=O)O)c1ccccc1[N+](=O)[O-] (stereo not given)
126 | 11 | x | COc1ccc(NC(=O)c2ccc3c(c2)N(C)CCS3)cc1
127 | 13 | x | COC(=O)CNC(c1ccccc1)c1cc(Cl)ccc1NC(=O)c1ccc(OC)cc1 (stereo not given)
128 | -14 | x | CCn1c(=N)n(CCOc2ccc(Cl)cc2)c2ccccc21
129 | -2 | -4.2 | O=C(CSc1nc2[nH]c(=O)cc(O)c2s1)Nc1ccccc1
130 | -15 | x | CC(C)(C)C(=O)OC[C@H]1O[C@@H](n2cnc3c(=O)[nH]cnc32)C[C@@H]1O
131 | -6 | x | Cc1ccc(Nc2nc(N)nc(COC(=O)C3=COCCO3)n2)cc1
132 | -10 | x | CCC(C(=O)O)N1C(=O)/C(=C\C(C)=C\c2ccccc2)SC1=S (stereo not given)
133 | x | 0.0 | c1nc(NCCCN2CCOCC2)c2sccc2n1
